# Assay outcomes as filed in PubChem BioAssay.
# Vif TR-FRET: inhibitors of Vif binding to APOBEC3G peptide, primary screen, biochemical, TR-FRET, GST-Vif 1-94, biotin-A3G peptide, dose response retest (AID 1117319); Virion infectivity factor (Human immunodeficiency virus type 1 group M subtype B (isolate …; TR-FRET GST-Vif / biotin-A3G peptide binding; higher % means a stronger effect; test concentration not given here; strong numbers were not always called active; inhibition, %; hits with a dose series show IC50 in µM; 260,000 compounds, 0.57% hits;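 active = above the screen mean plus three standard deviations and confirmed in dose response; inconclusive = results disagree or hit not tested in dose response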;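 also: Vif residues 1-94 fused to GST binding biotinylated APOBEC3G peptide 110-148; 0% = full assay without inhibitor and 100% = GST in place of GST-Vif; retest series ran down from 100 µM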
# HNF4A DNA FP: change in binding of human HNF4A to DNA, primary screen, biochemical, fluorescence polarization, FITC-DNA. Hepatocyte nuclear factor 4-alpha (Homo sapiens), P41235. 1 h. activity change, % at 10 µM. 360,000 compounds, 0.3% hits; in the data active = activity change above about 30%, passing the limit was not always enough;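 also: controls were the assay level and a saturating level of protein; the project sought stronger binding though the title names inhibitors; some compounds called inactive have numbers as strong as hits; positive values seem to mean higher polarization but the record does not say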
# RanGTP-Imp inh: inhibitors of RanGTP-importin-beta interaction, primary screen, biochemical, FRET, CFP-Ran, YFP-importin-beta, homogeneous. cell-free CFP-Ran/YFP-importin-beta FRET ratio. inhibition, % (test concentration not listed). 300,000 compounds, 1.1% hits;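 active = most replicates above 15%; inconclusive = exactly half above 15%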;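 also: 0% = DMSO wells and 100% = Ran loaded with GDP instead of GTP; wells of about 40 µL received 100 nL stock; the first replicate is given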
# LANA-H2B inh: blockers of LANA interaction with H2A/H2B – biochemical, FP readout, HTS, primary screen; cell-free LANA-H2A/H2B peptide, fluorescence polarization; 320,000 compounds, 0.6% hits; inhibition, % (no concentration beside the values); in the data active = inhibition mostly above about 10%, no sharp cut-off; inactive = mostly below about 6.7%;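 also: stock transfer was 7.5 nL into about 10 µL; 0% = median of vehicle wells and 100% = median of positive control wells; one replicate is shown; the record names a cut of 25% in any replicate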
# Target sequence (Q9QR71 whole entry, looked up): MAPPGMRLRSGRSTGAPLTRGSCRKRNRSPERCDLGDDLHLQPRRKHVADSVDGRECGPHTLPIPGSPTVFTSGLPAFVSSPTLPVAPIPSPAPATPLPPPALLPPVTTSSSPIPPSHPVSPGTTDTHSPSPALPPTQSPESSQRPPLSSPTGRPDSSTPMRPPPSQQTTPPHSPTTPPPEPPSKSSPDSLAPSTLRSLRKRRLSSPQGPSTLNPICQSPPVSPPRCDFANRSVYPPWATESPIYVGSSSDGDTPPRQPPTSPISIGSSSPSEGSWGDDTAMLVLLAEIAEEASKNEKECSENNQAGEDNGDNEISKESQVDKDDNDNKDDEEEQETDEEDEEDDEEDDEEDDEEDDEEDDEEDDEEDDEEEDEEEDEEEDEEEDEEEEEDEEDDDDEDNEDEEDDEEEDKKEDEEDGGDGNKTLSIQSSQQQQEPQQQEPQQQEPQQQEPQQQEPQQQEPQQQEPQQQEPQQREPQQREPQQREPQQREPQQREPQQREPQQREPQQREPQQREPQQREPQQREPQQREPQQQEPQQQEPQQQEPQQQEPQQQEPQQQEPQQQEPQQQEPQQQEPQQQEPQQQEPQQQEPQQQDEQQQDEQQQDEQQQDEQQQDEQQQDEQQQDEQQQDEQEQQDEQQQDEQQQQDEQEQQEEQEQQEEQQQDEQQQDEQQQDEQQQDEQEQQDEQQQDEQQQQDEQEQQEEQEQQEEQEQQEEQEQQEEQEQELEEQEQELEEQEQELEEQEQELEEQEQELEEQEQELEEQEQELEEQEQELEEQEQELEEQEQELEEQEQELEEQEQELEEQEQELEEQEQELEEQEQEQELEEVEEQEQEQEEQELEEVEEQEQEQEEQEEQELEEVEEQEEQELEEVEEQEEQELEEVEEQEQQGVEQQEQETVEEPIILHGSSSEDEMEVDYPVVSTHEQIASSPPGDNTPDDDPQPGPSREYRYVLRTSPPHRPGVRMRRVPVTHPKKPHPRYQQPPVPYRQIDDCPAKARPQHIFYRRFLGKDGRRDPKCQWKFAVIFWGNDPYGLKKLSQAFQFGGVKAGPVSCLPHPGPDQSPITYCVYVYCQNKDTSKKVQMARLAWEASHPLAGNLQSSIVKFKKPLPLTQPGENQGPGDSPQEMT
# ALR H2O2 inh: inhibitors of human ALR sulfhydryl oxidase, primary screen, biochemical, H2O2 detection, HRP-luminol luminescence, single point. FAD-linked sulfhydryl oxidase ALR (Homo sapiens), P55789. purified ALR, DTT oxidation. inhibition, % (concentration not given with the values). 290,000 compounds, 3.8% hits;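 active = mean and each replicate at 75% or more; inconclusive = only one of the two met; inactive = neither met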;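 also: stock transfer was 7.5 nL into about 7.5 µL; 0% = neutral wells and 100% = wells with inactivated enzyme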
# Calb FLC: C. albicans growth inhibition with fluconazole, primary screen, CaCi-2 strain, Alamar Blue fluorescence; growth inhibition, % (no concentration beside the values); 300,000 compounds, 0.57% hits; C. albicans CaCi-2 (fluconazole-resistant clinical isolate) + fluconazole, 48 h;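 active = most replicates above 75%; inconclusive = exactly half above 75%; inactive = most below 75%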;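 also: all wells also contain fluconazole at 8 µg/ml as a sub-toxic cotreatment; 0% = median of DMSO wells and 100% = median of geldanamycin control wells; wells of about 8 µL received 7.5 nL stock; the first replicate is given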
# B2AR ag: beta2AR agonists driving receptor internalization, primary screen, cell-based, FAP fluorogen, flow cytometry | response, % (concentration not given with the values) | 340,000 compounds, 0.43% hits | Am2.2-beta2AR cells; reference of the scale not given here | Beta-2 adrenergic receptor (Homo sapiens), P07550;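 active = response above a set limit, near 3 SD of response in nonfluorescent compounds, cut at about 42% in these data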;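 also: stock transfer was 100 nL into about 11 µL; a reference agonist was the positive control; negative values mostly stem from fluorescent compounds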
# * = called active by the depositor; ? = inconclusive; . = not tested or not shown.
SMILES,Vif TR-FRET,HNF4A DNA FP,RanGTP-Imp inh,LANA-H2B inh,ALR H2O2 inh,Calb FLC,B2AR ag
Oc1c(Br)cc(/C=N/n2c(-c3ccccc3)n[nH]c2=S)c(O)c1Br,.,-13,2.0,-2.2,?,-7,6
Cc1ccc(OCC(=O)NCCNC(=O)c2cccnc2)cc1C,-4%,0.8,-0.5,-4.6,0,-2,-3
Fc1ccc(-c2csc3ncnc(N4CCc5ccccc5C4)c23)cc1,-2%,0.3,7.9,-1.5,-16,2,1
CC1(C)CC(=O)C=C(Nc2ccc(F)c(Cl)c2)C1,-8%,2.1,4.1,-3.2,-2,-12,-5
Clc1ccc(SCCOCCN2CCc3ccccc3C2)cc1,-3%,-1.9,?,-2.6,-4,-11,7
Cc1cccn2c(=O)c(/C=C(\C#N)C(=O)NCc3ccco3)c(N3CCCCCC3)nc12,-6%,2.7,-4.7,-1.8,-4,8,-21
CCCOc1ccc(C(=O)CCC(=O)NNC(=O)Cn2nc(C)cc2C)cc1,-5%,2.3,0.5,3.9,-3,-1,0
CC1CCCCC1NC(=O)CCS(=O)(=O)c1cccc2nonc12 (centres undefined),1%,2.9,1.2,-1.0,0,2,3
O=C(c1cccc(C(F)(F)F)c1)N1CCC(O)(CS(=O)(=O)Cc2ccc(Cl)cc2)CC1,5%,0.6,6.5,1.4,-1,6,8
COc1cccc(NC(=O)c2ccc3c(c2)N(CC(=O)N2CCCCC2)C(=O)C(C)(C)O3)c1,0%,1.3,-2.1,4.2,.,?,10
O=c1cc(NCc2ccc3c(c2)OCO3)[nH]c(=O)n1-c1ccc(Cl)cc1,30%,-0.1,.,-4.5,-1,.,6
CCc1cc(=O)oc2c3c(cc(OCC(=O)NCCCC(=O)O)c12)OC(C)(C)CC3,4%,-1.1,5.5,-1.4,-6,-5,-3
O=C(COC(=O)CCSc1ccccc1Cl)NCc1ccco1,-12%,0.5,-4.2,-5.6,15,5,-1
COc1ccc(NC(=O)CCS(=O)(=O)c2ccc(OC)cc2)cc1,1%,1.2,?,-0.7,-8,-12,-8
Nc1c(C(=O)Nc2ccccc2)nnn1-c1ccc2c(c1)OCCO2,.,-0.3,-2.8,-0.6,1,-5,-10
CC(C)Cc1ccc(C#N)c(SCC(N)=O)n1,-2%,3.0,-0.7,-2.9,-4,-11,-3
CC(C)NS(=O)(=O)c1ccc(Br)c(C(=O)OC(C)C(=O)NC2CCCCC2C)c1 (centres undefined),4%,0.4,5.7,2.4,-1,-1,12
O=P(O)(O)COc1ccccc1P(=O)(c1ccccc1)c1ccccc1,-1%,-4.5,2.5,1.9,-4,-6,0
C[C@H](NC(=O)N1CCn2c1nc1ccccc12)C(=O)NC1CC1,.,1.2,-1.6,4.3,0,3,-9
COc1cccc(CNC(=O)CSc2nnc3c(n2)[nH]c2ccc(OC)cc23)c1,?,2.5,1.2,-2.3,-3,-2,4
CCOC(=O)CCNC(=O)c1ccccc1Br,12%,-7.0,-1.3,2.4,.,6,-4
CCN1CCN(CCC(=O)Nc2ccccc2C)CC1,5%,1.8,?,0.2,-12,5,4
CC1Sc2ccc(S(=O)(=O)NCCc3ccccc3)cc2NC1=O (centres undefined),-8%,-1.9,-3.3,-2.1,13,-4,2
Cc1c([N+](=O)[O-])cc(C(=O)N2CCOCC2)cc1[N+](=O)[O-],.,-2.8,2.6,1.8,-4,11,-5

# Gathered by group, those above with a furan ring, fused or not.
SMILES,Vif TR-FRET,HNF4A DNA FP,RanGTP-Imp inh,LANA-H2B inh,ALR H2O2 inh,Calb FLC,B2AR ag
Cc1cccn2c(=O)c(/C=C(\C#N)C(=O)NCc3ccco3)c(N3CCCCCC3)nc12,-6%,2.7,-4.7,-1.8,-4,8,-21
O=C(COC(=O)CCSc1ccccc1Cl)NCc1ccco1,-12%,0.5,-4.2,-5.6,15,5,-1

# The results go on:
SMILES,Vif TR-FRET,HNF4A DNA FP,RanGTP-Imp inh,LANA-H2B inh,ALR H2O2 inh,Calb FLC,B2AR ag
Cn1cc([N+](=O)[O-])c(C(=O)N/N=C/c2ccncc2)n1,-1%,3.9,4.5,0.8,-22,8,3
Cc1sc2nc(SCC(=O)N(CCO)CCO)n(C3CCCCC3)c(=O)c2c1C,4%,0.2,3.6,-2.8,0,-1,-13
COc1ccccc1-c1sc2cc3c(cc2c1C#CC1(O)CCCCC1)OCO3,.,0.8,.,-5.4,-1,.,-14
NC(=O)c1ccccc1NC(=O)CN1CCN(Cc2ccc(Cl)cc2Cl)CC1,-5%,-3.0,2.0,2.6,5,-4,-10
CN(C(=O)COC(=O)c1cc(NS(=O)(=O)c2cc([N+](=O)[O-])ccc2Cl)ccc1O)C1CCCCC1,30%,1.2,3.4,-2.6,-14,14,-2
O=[N+]([O-])c1nn(-c2ccc3c(c2)OCCO3)n(O)c1=NC1CCN(Cc2ccccc2)CC1,11%,0.4,-5.3,-5.4,-22,43,-1
Cc1ccc(OCCSc2nc3ccccc3n2CC(=O)O)cc1C,4%,1.1,-1.1,-2.3,6,-7,-3
Cc1cccc([C@@H]2[C@@H]3C(=O)N(C)C(=O)[C@@H]3[C@@H]3C(=O)Nc4ccccc4C(=O)N23)c1,.,-0.3,8.4,-1.5,-17,-4,7
Cc1ccc2[nH]c3c(N4CCCCCC4)ncnc3c2c1,-5%,.,-1.7,.,.,?,.
O=C(Nc1ccncc1)c1cc2ccccc2cc1O,1%,2.9,-26,-0.4,-33,-2,11
CCNC(=O)CC1C(=O)N(C)C(=S)N1NC(=O)c1ccc(Cl)cc1 (centres undefined),3%,0.5,-2.0,-2.6,-2,-2,2
CCCCNC(=O)Nc1cc(C(=O)OC)ccc1C,22%,-3.9,?,-1.8,-7,4,2
CC(=O)OCC(=O)c1c[nH]c2ccccc12,-1%,6.1,5.6,-4.8,0,4,-1
CCOc1ccc(N(CC(=O)NCCc2ccccc2)C(=O)CCC(=O)Nc2cc(C)ccn2)cc1,.,1.4,2.1,2.3,-4,3,-12
C=CCNC(=O)c1ccc2c(c1)N(CC)C(=O)c1ccccc1S2,-6%,1.9,?,4.4,-4,3,-1
CCOc1ccc(N2C(=O)/C(=C/c3cccs3)N(C)C2=S)cc1,-4%,8.5,-6.1,-1.6,-2,12,-13
Cc1cnc(CNC(=O)C2CCC(=O)N(Cc3ccc(Cl)cc3)C2)[nH]1 (centres undefined),.,-5.1,4.8,0.9,-8,2,8
O=C(COc1ccc(S(=O)(=O)N2CCCCC2)cc1)NCc1ccncc1,0%,-0.1,1.7,0.8,-5,-12,-3
C/C(=N/NC(=O)CSc1ccccn1)c1ccc([N+](=O)[O-])cc1,-8%,-2.5,?,2.2,1,3,-11
Cn1c(=O)cc(SCC(=O)NCCC2=CCCCC2)c2ccc(Cl)cc21,22%,-1.1,0.9,-3.8,3,-1,-8
COC(=O)c1cccc(Cn2cc([N+](=O)[O-])cn2)c1,-8%,.,-0.5,1.4,.,-16,.
Cc1cccnc1CCNC(=O)C1CCC(=O)N(Cc2cccc(F)c2)C1 (centres undefined),-1%,-0.9,-1.1,1.2,0,5,4
CS(=O)(=O)c1ccc(NC(=O)CCN2C(=O)C3CCCCC3C2=O)cc1 (centres undefined),-3%,-0.7,0.5,3.2,-4,-12,6
CCOc1ccccc1C(=O)Nc1cc(OC)ccc1OC,?,2.5,?,-2.8,-6,17,-6
CN1CCN(c2nc3c(c(=O)[nH]c(=O)n3C)n2Cc2ccccc2F)CC1,.,4.0,?,8.7,-2,4,-4
Cc1cccc(N2C(=O)c3ccc(C(=O)Nc4ccccn4)cc3C2=O)c1,.,-1.2,3.2,2.8,-2,-5,-15
O=C(OCCN=C1NS(=O)(=O)c2ccccc21)c1ccncc1,6%,4.7,-2.1,-3.9,0,3,5
COc1cccc(-c2nc(COc3ccc(Cl)cc3Cl)no2)c1,.,-1.5,-1.1,1.2,3,-30,0
COc1cccc(CNC(=O)CCCc2c[nH]c3ccccc23)c1,.,2.0,1.5,3.3,15,0,2
COC(=O)c1cc(NC(=O)Nc2ccccc2)ccc1Cl,-7%,2.3,5.1,0.2,-7,35,-3
Cc1nc(-c2ccc(C(=O)Nc3cc(S(N)(=O)=O)ccc3C)cc2)cs1,-2%,2.1,1.6,-1.7,-9,18,-1
CC(C)(C)OC(=O)N1CCCC(C(=O)Nc2ccc(C(=O)N3CCOCC3)cc2)C1 (centres undefined),.,-2.4,.,4.9,3,.,2
COc1cc(/C=C/C(=O)c2ccc(NS(=O)(=O)c3ccc(C)cc3)cc2)ccc1OC(F)F,-13%,-4.7,4.2,-0.2,-2,6,10
COc1ccc(C)cc1NC(=O)c1sc2nc(C)nc(N3CCOCC3)c2c1C,-6%,-0.8,30,3.0,1,18,2
COc1ccc(CCNC(=S)NC(=O)c2cc(OC)c(OC)c(OC)c2)cc1OC,-43%,-2.5,0.3,-8.7,5,3,-7
Cc1cc(C(F)(F)F)n(-c2nc(C(=O)N/N=C/c3ccc(F)cc3)cs2)n1,?,5.0,-6.3,6.1,-3,41,-1
COc1ccccc1NC(=O)C1=C(C)Nc2nc(-c3ccccc3)nn2C1c1ccccn1 (centres undefined),2%,4.8,-2.8,-0.5,5,22,0
CCOC(=O)C1=C(COC(=O)C(CC)c2ccccc2)NC(=O)NC1C (centres undefined),1%,0.2,.,3.4,2,.,0
Cc1nc2oc3ccccc3c(=O)c2cc1C(=O)O,-10%,0.8,2.6,2.0,.,1,0
Cc1ccc(N2CC(O)Cn3c2nc2c3c(=O)[nH]c(=O)n2C)cc1 (centres undefined),.,-0.6,-1.0,1.9,7,0,3
Cc1ccc(S(=O)(=O)NC(=O)NCc2ccc3c(c2)OCO3)cc1,-1%,7.3,-0.5,-1.0,-5,-5,-2
Cc1cc(C)c2cc(CN(CCCO)S(=O)(=O)c3ccccc3F)c(=O)[nH]c2c1,-4%,4.2,7.3,-2.8,0,2,4
CCN1CCN(CCNC(=O)Cn2c(=O)c3cccn3c3ccc(F)cc32)CC1,.,0.7,-0.6,-1.2,68,-2,-6
Cc1ccccc1NC(=O)COc1nsnc1N1CCOCC1,-5%,3.0,-1.5,-1.8,-11,4,-6
O=c1c2ccccc2nc(N/N=C/c2ccccc2)n1O,-1%,0.5,4.6,2.1,.,-45,3
O=C(COc1ccc2c3c(c(=O)oc2c1)CCCC3)NCc1ccncc1,.,-0.6,5.0,2.1,1,6,8
Cc1ccccc1OCc1nnc(SCC(=O)Nc2ccc3c(c2)oc2ccccc23)n1C,3%,-3.9,-0.7,-2.6,-9,4,-12
COCCN(Cc1ccccc1)C(=O)Cc1ccc(S(=O)(=O)N2CCOCC2)s1,27%,5.7,.,-0.6,2,.,14
Cc1ccc(N=C2NC(=O)C(CC(=O)O)S2)cc1 (centres undefined),12%,-5.0,-2.7,-1.4,-4,33,0
COc1ccccc1N1CCN(CCCNC(=O)Nc2ccccc2C)CC1,-5%,-4.9,1.1,2.9,.,-11,3
Cc1cc(NC(=O)c2ccc(Br)o2)ccc1NC(=O)c1ccco1,.,-1.6,-1.2,4.2,0,-2,-10
COc1ccc(NC(=O)Nc2cccc(Cl)c2Cl)c(OC)n1,-6%,2.7,6.6,-2.1,-3,7,4
CCSc1nnc(NC(=O)c2cccs2)s1,4%,1.7,-0.4,-3.2,1,-1,-3
C=C(c1ccc(OC)cc1)c1ccc(OC)cc1,13%,1.7,-2.5,.,.,-11,4
COc1ccc(OC)c(-c2csc(NC(=O)COC(=O)c3ccc(NC(=O)CC#N)cc3)n2)c1,-6%,5.8,.,-2.0,11,.,42*
